From PubChem
gsp ag – activates gsp, the McCune-Albright syndrome mutation; Potency, µM (series often up to 76.9 µM), inactives show at the top dose activation (cAMP increase), usual class: activators; 340,000 compounds, 0.13% hits; gsp mutant cells, cAMP HTRF, 30 min; control for the full effect not named in the record; active = well fitted activation curve with a large enough effect; inconclusive = small, poorly fitted or top-dose-only effect, or another doubt; inactive = no such curve, though single readings can be large or run the other way; cell line not stated here;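 further: phosphodiesterase inhibitor Ro 20-1724 added with compounds to block cAMP breakdown; potency means the concentration at half of the fitted maximal effect; nearly all actives have a fitted effect of over 60% in size; about a fifth of the inactives were tested at one dose only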
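Cells in DMEM/10% FBS with G418 were pretreated with compounds in DMSO plus […] (300 uM stock) for 30 min at 37C. cAMP was measured by HTRF (cAMP-d2 plus anti-cAMP antibody-K) after 30 min at room temperature.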
D2 potentiator – human D2 receptor positive allosteric modulation. P14416. 360,000 compounds, 0.23% hits. DiscoveRx D2 beta-arrestin cells, luminescence, 90 min; 100% = 57 uM dopamine signal. potentiation, % (test concentration not listed); active = potentiation of 50% or more; inconclusive = 30% to 50%; inactive = 30% or less;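 further: compound concentration not given in the record; tested on top of an EC20 dose of dopamine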
Target sequence (P14416 whole entry, looked up): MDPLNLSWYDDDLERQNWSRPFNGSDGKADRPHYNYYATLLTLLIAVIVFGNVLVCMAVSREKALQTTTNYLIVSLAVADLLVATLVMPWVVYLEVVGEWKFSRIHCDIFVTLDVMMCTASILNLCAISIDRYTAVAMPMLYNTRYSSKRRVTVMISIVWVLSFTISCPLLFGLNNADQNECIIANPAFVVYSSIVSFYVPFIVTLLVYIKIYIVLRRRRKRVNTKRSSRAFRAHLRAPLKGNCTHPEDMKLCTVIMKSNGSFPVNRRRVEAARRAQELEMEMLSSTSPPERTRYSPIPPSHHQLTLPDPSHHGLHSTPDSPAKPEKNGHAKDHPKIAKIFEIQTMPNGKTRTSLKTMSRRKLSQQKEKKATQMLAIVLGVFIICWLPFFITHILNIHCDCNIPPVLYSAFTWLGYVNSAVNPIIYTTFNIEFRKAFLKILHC
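D2 cells co-treated with compound plus 50 nM dopamine (EC20) for 90 min at 37 deg C to detect potentiation. Beta-arrestin recruitment was read as enzyme-fragment luminescence after 1 h at ambient temperature. Full response was set by 57 uM dopamine.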
TRPV1 potentiator – enhances activation of the human vanilloid receptor TRPV1; Q8NER1; TRPV1-expressing cells, Fluo-8 calcium influx, capsaicin EC20 potentiation; host cell line not named in the record; control for the full effect not named in the record; potentiation, % at 8.33 µM; 320,000 compounds, 0.02% hits; AID 540277; active means potentiation above 80%; inconclusive means 30% to 80%; inactive means below 30%; further: 0% is about no effect
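Fluo-8 calcium influx in TRPV1-expressing cells, kinetic read (ex 480/em 520 nm). Compound added and read 3 min for agonist activity, followed by capsaicin at EC20 final and 2 min further read for enhancement.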
gsp antagonist – antagonists of gsp mutant (McCune-Albright syndrome); 340,000 compounds, 0.4% hits; Potency, µM (titrated, usually from 76.9 µM), without a hit: top-dose activity change, negative = inhibition, hits mostly inhibitors; AID 624288; gsp-mutant cells, cAMP HTRF, 30 min; control for the full effect not named in the record; active = falling curve of any shape with a large fitted effect; inconclusive = falling curve, mostly with a smaller effect; inactive = flat or rising curve; cell line not stated here;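 further: intracellular cAMP measured with PDE inhibitor Ro 20-1724 present during compound exposure; potency means the concentration at half of the fitted maximal effect; on the % scale 0 is the no-effect control and ±100 the full control effect; nearly all actives have a fitted effect of over 65% in size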
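HTRF cAMP measurement after 30 min RT detection following 30 min, 37C compound treatment alongside […] (added as 300 uM solution) in G418-selected cells seeded at 2000/well and grown 16–24 h.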
ClpP mod – qHTS Assay for Activators of ClpP | purified B. subtilis ClpP, FRET peptide cleavage, 20 min | Potency, µM (titrated, usually from 57.5 µM), for inactives: at the top dose activity change, negative = active | ATP-dependent Clp protease proteolytic subunit (Bacillus subtilis (strain 168)), P80244 | 340,000 compounds, 1.9% hits; active = well fitted falling curve with a large enough effect; inconclusive = small, poorly fitted or top-dose-only effect; inactive = no such curve, though single readings can be large or run the other way; further: potency means the concentration at half of the fitted maximal effect; the source files actives as falling curves though it sought activators and does not explain the sign; nearly all actives have a fitted effect of over 65% in size; many hits overshoot -100%
Target sequence (P80244 whole entry, looked up): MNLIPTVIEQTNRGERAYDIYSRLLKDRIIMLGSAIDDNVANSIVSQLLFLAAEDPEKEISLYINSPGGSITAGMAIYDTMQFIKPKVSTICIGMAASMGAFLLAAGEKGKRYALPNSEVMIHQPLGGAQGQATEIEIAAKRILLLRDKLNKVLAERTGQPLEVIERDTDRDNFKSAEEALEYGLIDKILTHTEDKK
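ClpP 10 microg/mL final, pH 8 Tris/KCl buffer with BSA, glycerol, Tween-20; compound pinned in; FRET-FV substrate; RT 20 min; Ex320/Em430; ΔFRET vs ADEP 5.8 microM, DMSO, no enzyme.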
Menin MLL FP FL – displaces fluorescein MLL peptide from human menin; FP activity change, % at 61.4 µM; Fluorescence polarization, fluorescein-MLL peptide displacement from menin; AID 1766; 290,000 tested, under 10 active; inconclusive = falling polarisation curve, or a change in total fluorescence; inactive = total fluorescence flat and polarisation flat or rising; no compound was filed as active; the % refers to the polarisation; negative = inhibition;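 further: % of control where 0% means no effect; inhibitors lower the polarisation; unlabelled MLL peptide was the positive control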
Sfp PPTase inh – Sfp phosphopantetheinyl transferase inhibition; Potency, µM, without a hit: max response, negative = inhibition, usual class: inhibitors; 310,000 compounds, 3.5% hits; Biochemical Sfp PPTase activity, qHTS; AID 1490; active means well fitted inhibition curve with a large enough effect; inconclusive means small, poorly fitted or top-dose-only effect, or another doubt; inactive means no such curve, though single readings can be large or run the other way;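 further: the enzyme is Sfp with the accession as filed and its product quenches rhodamine fluorescence; potency means the concentration at half of the fitted maximal effect; 0% = enzyme reaction without inhibitor and -100% = no enzyme wells; top concentration of the series not given in the record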
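Step 1, compound plus 15 nM Sfp-PPTase, 15 min, room temperature. Step 2, add rhodamine-CoA (5 uM) and BHQ-2-YbbR (12.5 uM). Step 3, read 525/598 nm fluorescence at 0 and 30 min.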
An asterisk follows results filed as active; ? = inconclusive; . = not tested or not shown; & = joins results of further samples; [ ] = remark or other dose. This is a subset; count on the stated rates, not on these rows.

Molecule | gsp ag | D2 potentiator | TRPV1 potentiator | gsp antagonist | ClpP mod | Menin MLL FP FL | Sfp PPTase inh
COC(=O)c1ccc(C(C(=O)NC2CCCCC2)N(CCN2CCOCC2)C(=O)Cc2cccs2)cc1 (centres undefined) | 2%[15.4 µM] | -2 | -9 | 0% | . | -1.5 | 10%
CC(=O)OC1CCC2(C)C(CCC3C4CC(N5CC5)C(C(C)=O)C4(C)CC(=O)C32)C1 (centres undefined) | 4% | -3 | . | 0% | -4.1% | . | .
CN(C)CCNC(=O)c1cccn(Cc2cccc(C(F)(F)F)c2)c1=O | 21%[15.4 µM] | -2 | 1 | 17% | . | -3.3 | 22%
CC1CCCCN1CC(O)c1c[nH]c2ccccc12 (centres undefined) | -8%[15.4 µM] | -13 | -6 | 14% | 0.3% | 4.4 | 13%
O=P(Nc1ccccc1)(Oc1ccccc1)Oc1ccccc1 | -15% | 19 | -4 | -14% | 1.7% | -3.6 | -1%
O=c1cccc2n1CC1CC2CN(S(=O)(=O)c2cc(Cl)ccc2Cl)C1 (centres undefined) | 11% | -31 | 6 | 10% | 0.7% | . | 9%
CC(N=Cc1c(O)n(C2CC2)c(=S)[nH]c1=O)c1ccccc1 (centres undefined) | -7%[15.4 µM] | -3 | 5 | 0% | 1.6% | 1.5 | 13%
C=C1[C@H]2CC[C@H]3[C@]4(C)C[C@H](O[C@H]5O[C@H](CO)[C@@H](OS(=O)(=O)O)[C@H](OS(=O)(=O)O)[C@H]5OC(=O)CC(C)C)C[C@@H](C(=O)O)[C@H]4CC[C@]3(C2)[C@H]1O | . | -2 | -5 | -2% | 1.1% | . | .
O=[N+]([O-])c1cccc(CN2CC=C(c3ccc(F)cc3)CC2)c1 | -8% | -4 | 9 | 4% | -1.2% | -5.3 | -4%
CC(C)[C@H](NC(=O)N1C[C@H]2C[C@@H](C1)c1cccc(=O)n1C2)C(=O)Nc1ccccc1F | . | 4 | 4 | -1% | -3.9% | 2.3 | 6%
O=C(CCc1ccccc1)N1C[C@H]2C[C@@H](C1)c1cccc(=O)n1C2 | . | -4 | 11 | 5% | -4.2% | 2.0 | 29%
COc1c2c(cc3c1OCO3)CCN(C)C2 | . | 7 | -7 | -31% | 0.3% | -1.8[24.8 µM] | 14%
COc1ccc(-c2[nH]ncc2CNC(C)Cc2ccsc2)c(F)c1 (centres undefined) | -32%[inhibitor] | -11 | -2 | -2% | -0.3% | 0.7 | -1%
COC(=O)C1=C(c2ccc(Cl)c(C(F)(F)F)c2)C[C@@H]2CC[C@H]1N2C(=O)NCc1ccc2c(c1)OCO2 | ? | -5 | 4 | 3% | -0.3% | . | .
C=CCn1c(O)c(C(CC)=Nc2cccc(C(F)(F)F)c2)c(=O)[nH]c1=O | 2% | -2 | -8 | 7% | . | -1.7 | 14%
CC(C)[C@H]1C(=O)O[C@@H]2CCN3CC=C(COC(=O)[C@](C)(O)[C@]1(C)O)[C@H]23 | 4% | -1 | -8 | 9% | -0.3% | -9.6 | 18%
CCOc1ccccc1-n1c(O)c(C=Nc2ccc(N(CC)CC)cc2)c(=O)[nH]c1=O | -29% | 29 | 2 | -1% | 0.1% | ? | -28%
COc1ccc2c3c([nH]c2c1)C(C)NCC3 (centres undefined) | . | -15 | -9 | 4% | 4.3% | 16 | 9%
COc1ccc(CC(=O)N(C)C2CCCN(Cc3ccccc3F)C2)cc1OC (centres undefined) | 2% | -3 | -7 | 12% | -3.3% | 2.0 | 11%
CC(=O)Nc1ccc(C2CN(C)CC2C(=O)c2ccc(Cl)cc2)cc1 (centres undefined) | -4% | -11 | 13 | -5% | -1.3% | 0.4 | 11%
CSC1=NP(=S)(SC)N(C)c2nc3n(c21)CCC3 (centres undefined) | ? | -30 | 13 | 14% | -3.2% | 7.5 | 15%
COc1ccc(N2C(=O)/C(=C/c3ccc(C)o3)C(=O)NC2=S)cc1 | ? | -9 | -6 | -11% | -0.6% | ? | 22µM*
C#C[C@]1(O)CC[C@H]2[C@@H]3CCC4=Cc5nc6nc7ccccc7n6cc5C[C@]4(C)[C@H]3CC[C@@]21C | . | -20 | -2 | 32µM* | -3.7% | . | .
Cc1ccc(S(=O)(=O)N(C)C)cc1NC(=O)C(C)[N+]12CCN(CC1)CC2 (centres undefined) | ? | 5 | -7 | 5% | 2.8% | -0.5 | 10%
CC(=O)N1CN2CN(C1)CN(C(C)=O)C2 | 10% | 0 | 9 | 13% | -1.0% | 3.3 | 10%
CCNCCNc1ccc([N+](=O)[O-])c2cccnc12 | -37% | -11 | . | -3% | . | 8.7 | 8%
COC(=O)CSc1n[nH]c(=S)s1 | -18% | -15 | 1 | 6% | . | 4.9 | ?
CN(Cc1ccccc1)C(=C(Cl)Cl)/C(=C1/NCCN1Cc1ccc(Cl)nc1)[N+](=O)[O-] | 12% | -15 | 19 | -25% | -1.1% | 0.7 | 10%
CN(C)[C@@H]1C(=O)C(C(N)=O)=C(O)[C@@]2(O)C(=O)C3=C(O)c4c(O)ccc(Cl)c4[C@@](C)(O)[C@H]3C[C@@H]12 | . | -24 | 8 | 6% | 129% | ? | -22%
COC(=O)C1=C(c2ccccc2OCc2ccccc2)C[C@@H]2CC[C@H]1N2C(=O)NCc1ccc(OC)c(OC)c1 | -20% | -1 | 3 | -16% | 0.9% | . | .
CCOc1ccc(N2C(=O)/C(=C/c3ccc(C)o3)C(=O)NC2=S)cc1 | -16% | -9 | -3 | -1% | 0.5% | ? | 22µM*
CN(C)C(=O)Oc1ccc(OCc2cccc[n+]2C)cc1 | -1%[15.4 µM] | 1 | -1 | 12% | 0.5% | 0.3 | 1%
O=P(N1CCCCC1)(N1CCCCC1)C(Cl)(Cl)Cl | 1% | -17 | -3 | -1% | 0.5% | 0.9 | 15%
CC1=C2C3OC(=O)C(C)C3CC[C@@]2(C)C=CC1=O (some centres undefined) | . | -2 | -2 | -5% | -0.7% | -6.4&-8.8 | 21%&11%
Cc1cc(N2C(=O)C3CCCN3C2c2ccccc2)no1 (centres undefined) | -16% | -7 | 3 | 11% | 1.6% | 0.2 | 3%
COC(=O)C1=C(c2ccc(OC(F)(F)F)cc2)C[C@@H]2CC[C@H]1N2C(=O)NCC1CC1 | . | -15 | -9 | -5% | 0.6% | . | .
CSc1ccc(C(=O)C2CCCN(CCCn3cccn3)C2)cc1 (centres undefined) | -3%[15.4 µM] | -11 | -3 | 4% | . | -4.0 | 9%
CN1C(=O)C(=Cc2ccc(N3CCCCCC3)o2)C(=O)N(C)C1=S | ? | -20 | 14 | -1% | -2.6% | ? | -22%
CCOC(=O)c1c(/N=C/c2c(O)n(-c3ccccc3F)c(=S)[nH]c2=O)sc2c1CCCC2 | 10% | -4 | 3 | -14% | -2.0% | ? | 13µM*
CCCCC(=O)N/N=C/c1c(O)n(CC)c(=S)[nH]c1=O | -3% | 12 | ? | 17% | -3.1% | 11 | -1%
O=C(c1cc(S(=O)(=O)N2CCCCC2)ccc1F)N1CCC2(CC1)OCCO2 | -15% | -13 | 5 | 5% | -0.2% | 0.0 | 0%
CNC(C(=O)c1ccccc1)C(OC)c1ccccc1 (centres undefined) | -24% | -10 | 11 | 4% | 2.7% | 2.1 | -1%
COC(=O)C12CCc3c(ccc4cc(OC)ccc34)C1=CC(=O)C2 (centres undefined) | -1% | -12 | . | -21% | 28µM* | . | .
O=C(Cc1ccc(Cl)c(Cl)c1)NCC1(N2CCOCC2)CCCCC1 | 7% | -1 | -17 | -4% | -2.2% | -1.2 | 3%
CCCOc1ccc(C(=O)CCC(=O)NNC(=O)c2ccncc2)cc1 | -37%[inhibitor] | 10 | -5 | 4% | -2.1% | . | 12%
COc1cccc(CNCCc2ccccc2)c1OC | 2%[15.4 µM] | -15 | -1 | 1% | . | 3.2 | 17%
CC(=O)c1ccc2c(c1)C1C(Cl)C(Sc3ccccc3[N+](=O)[O-])CC1C(C(=O)O)N2 (centres undefined) | -21% | -17 | 2 | ? | 0.9% | 5.8 | 56µM*
COc1ccc(C(=O)Nc2cc(Cl)ccc2C(=O)O)cc1 | ? | -4 | 16 | ? | . | -3.7 | 7%
Cc1ccc2c(c1)[C@@H]1CN(C)CC[C@@H]1N2C(=O)Nc1cccc(C(F)(F)F)c1 | 29% | -15 | 22 | 6% | 0.3% | 2.0 | 0%
CC(C)(CN)CC(=O)O | 9% | 0 | 4 | 6% | 1.1% | 1.1 | -9%

Continued:
Molecule | gsp ag | D2 potentiator | TRPV1 potentiator | gsp antagonist | ClpP mod | Menin MLL FP FL | Sfp PPTase inh
Oc1ccc(Cl)cc1Cc1cc(Cl)ccc1O | . | -3 | 16 | -28% | -0.7% | -2.1&-1.0&1.9 | 14%&-4%
CC(=O)O[C@]1(C)C(=O)OC/C2=C/CN(C)CCC(OC(=O)[C@@](O)(C(C)O)C[C@H]1C)C2=O (some centres undefined) | -41%[inhibitor] | -1 | 13 | 12% | . | 4.2 | 2%
CNC(C)Cc1ccccc1 (centres undefined) | . | -11 | . | -4% | -3.7% | . | .
COC(=O)C1C2c3ccccc3OC1(C)N=c1s/c(=C/c3cnn(C)c3C)c(=O)n12 (centres undefined) | 18% | -7 | -9 | 4% | -1.3% | 2.9 | 18%
C[n+]1c(-c2ccccc2)c2cc(N)ccc2c2ccc(N)cc21 | . | 25 | -1 | 35µM* | 0.9% | ? | -6%
CCCCn1c(O)c(C(CC)=NCc2cccnc2)c(=O)[nH]c1=O | ? | -8 | -5 | 10% | -0.2% | -0.9 | 5%
O=C(Cc1coc2cc3c(cc12)CCC3)OCC(=O)N1CCCC1=O | -23% | 0 | -8 | -4% | . | -0.6 | 2%
C[C@H](CO)N1C[C@H](C)[C@@H](CN(C)C(=O)Oc2cccc3ccccc23)OCc2cn(nn2)CCCC1=O | 33% | -9 | . | . | -2.3% | . | .
